Assay outcomes deposited in PubChem by National Center for Advancing Translational Sciences (NCATS).
Lassa entry inh: blocks Lassa virus binding to or entry into cells. Lassa virus pseudotype entry inhibition, cell reporter; control for the full effect not named in the record. Potency, µM (series often up to 37.9 µM), without a hit: top-dose activity change, negative = inhibition, usual class: inhibitors. 300,000 compounds, 1.2% hits; active means well fitted inhibition curve with a large enough effect; inconclusive means small, poorly fitted or top-dose-only effect, or effect the other way; inactive means flat fitted curve, though single readings scatter; tested in HEK293 cells; also: % is scaled to controls: 0 for no effect and ±100 for the full control effect; nearly all actives have a fitted effect of over 50% in size; luciferase read-out
NS1 inh: blocks influenza NS1 protein function | S. cerevisiae slowed by influenza A NS1, growth recovery by OD600 | AID 2326 | Potency, µM (titrated, usually from 46.1 µM), for inactives: at the highest dose activity, positive = more growth | 270,000 compounds, 0.4% hits; also: actives are rising curves; nearly all actives have a fitted effect of over 50% in size
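In this qHTS, NS1 from influenza A is expressed in budding yeast, where it slows growth. Cells are switched from glucose to 2% galactose medium (pH 6.0, -URA), treated with compound, and growth recovery is read at OD600.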
RE007 growth inh: less growth of the S. pombe RE007 Vpr strain; S. pombe RE007 Vpr strain, BacTiter-Glo ATP luminescence, 24 h; control for the full effect not named in the record; Potency, µM (doses to about 92.2 µM), for the others: top-dose activity change, negative = less growth; 360,000 compounds, 0.21% hits; active = well fitted falling curve with a large enough effect; inconclusive = small, poorly fitted or top-dose-only effect; inactive = no such curve, though single readings can be large or run the other way;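 also: % is scaled to controls: 0 for no effect and ±100 for the full control effect; nearly all actives have a fitted effect of over 50% in size; the assay follows cell death caused by Vpr and the record does not say whether a fall means rescue or toxicity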
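Fission yeast strain RE007, carrying one chromosomally integrated HIV-1 vpr copy, was seeded at OD 0.01 in PMG+AL medium with 23 nL pinned compound. After 24 h at 30 °C and 99% humidity, viability was read by BacTiter-Glo luminescence.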
MARV entry inh: blocks Marburg virus binding to or entry into cells; Marburg virus pseudotyped entry inhibition, cell reporter; control for the full effect not named in the record; about a third of the inactives were read at about 46 µM; Potency, µM (titrated, usually from 37.8 µM), for inactives: at the top dose activity change, negative = inhibition, hits mostly inhibitors; 300,000 compounds, 1.8% hits; AID 540276; active = well fitted inhibition curve with a large enough effect; inconclusive = small, poorly fitted or top-dose-only effect, or effect the other way; inactive = flat fitted curve, though single readings scatter; tested in HEK293 cells; about a fifth of its hits are not listed in these tables; also: % is scaled to controls: 0 for no effect and ±100 for the full control effect; luciferase read-out
Cruzain Triton: blocks cruzain activity in presence of Triton detergent; Potency, µM, inactives show max response, negative = inhibition, actives largely listed as inhibitors; 200,000 compounds, 0.43% hits; purified cruzain, Z-FR-AMC fluorescence, 0.01% Triton; active = well fitted curve in the direction sought with a large enough effect; inconclusive = small, poorly fitted or top-dose-only effect, or another doubt; inactive = no such curve, though single readings can be large; an effect the other way counts as inactive or inconclusive;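 also: plate controls were neutral wells for no effect and buffer without enzyme for full effect; nearly all actives have a fitted effect of over 40% in size; top concentration of the series not given in the record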
Target sequence (P25779 123-467 limits assumed): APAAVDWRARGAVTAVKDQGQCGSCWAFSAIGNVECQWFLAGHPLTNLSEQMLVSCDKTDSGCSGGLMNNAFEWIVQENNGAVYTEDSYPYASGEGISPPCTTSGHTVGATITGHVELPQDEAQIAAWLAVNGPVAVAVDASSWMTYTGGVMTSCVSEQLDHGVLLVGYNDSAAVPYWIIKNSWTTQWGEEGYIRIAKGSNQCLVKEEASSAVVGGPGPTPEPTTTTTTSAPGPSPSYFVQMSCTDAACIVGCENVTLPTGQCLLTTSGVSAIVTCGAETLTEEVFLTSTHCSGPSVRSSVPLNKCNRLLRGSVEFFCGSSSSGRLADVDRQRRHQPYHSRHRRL
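Cruzain (1.5 nM) preincubated 15 min at RT with compound in 100 mM sodium acetate pH 5.5, 5 mM DTT, 0.01% Triton X-100. Reaction started with 2 uM Z-FR-AMC; AMC fluorescence (ex 360/em 450 nm) change over 60 s gave rate.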
SARS PLP yeast: blocks SARS-CoV papain-like protease in a yeast assay. S. cerevisiae expressing SARS-CoV PLpro, growth rescue; control for the full effect not named in the record. Potency, µM (top dose mostly 32.9 µM), without a hit: at the highest dose activity, positive = growth rescue. 330,000 compounds, 0.19% hits; also: 0% is about no effect; nearly all actives have a fitted effect of over 55% in size; growth read by luminescence after 48 h
StopGo reporter: lowers the luciferase signal of an FMDV 2A StopGo reporter; Potency, µM (top dose mostly 57.9 µM), without a hit: at the highest dose signal change, negative = less light; human cells with a luciferase reporter of 2A StopGo recoding; control for the full effect not named in the record; 410,000 compounds, 1.2% hits; AID 1159524; active = well fitted falling curve with a large enough effect; inconclusive = small, poorly fitted or top-dose-only effect; inactive = no such curve, though single readings can be large or run the other way; tested in HEK293T cells; also: % is scaled to controls: 0 for no effect and ±100 for the full control effect; nearly all actives have a fitted effect of over 45% in size; luciferase light after 4 h
Cruzain inh noDet: blocks cruzain activity in detergent-free assay | P25779 | purified cruzain, Z-FR-AMC fluorescence, no detergent | Potency, µM, for inactives: max response, negative = inhibition, hits mostly inhibitors | 200,000 compounds, 2.3% hits; active = well fitted curve in the direction sought with a large enough effect; inconclusive = small, poorly fitted or top-dose-only effect, or another doubt; inactive = no such curve, though single readings can be large; an effect the other way counts as inactive or inconclusive;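 also: plate controls were enzyme without inhibitor for no effect and buffer without enzyme for full effect; nearly all actives have a fitted effect of over 40% in size; top concentration of the series not given in the record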
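Detergent-free condition (0.00005% Triton X-100) in acetate buffer pH 5.5 with DTT. 1.5 nM enzyme and compound were pre-mixed 15 min, then 2 uM Z-FR-AMC substrate added; reaction progress from fluorescence change between first and third reads (60 s).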
Active calls of the source: *; u = inconclusive; x = no result given; & = joins results of further samples; [ ] = remark or other dose. Unless noted, calls follow the shape of the dose curve; as a rule, active means well fitted rising curve with a large enough effect; inconclusive means small, poorly fitted or top-dose-only effect; inactive means no such curve, though single readings can be large or run the other way. Potency is read from the fitted curve at half-maximal effect.

SMILES	Lassa entry inh	NS1 inh	RE007 growth inh	MARV entry inh	Cruzain Triton	SARS PLP yeast	StopGo reporter	Cruzain inh noDet
COc1ccc(CNC(=O)C(=O)NCC2OCCN2S(=O)(=O)c2ccc(OC)c(OC)c2)cc1 (stereo not drawn)	-16%	-7%	23%	1%	x	4%	-23%	x
Fc1ccc(Cc2cn3cc(-c4ccccc4)nc3s2)cc1	-8%[46.1 µM]	x	x	x	-2.2%	x	-74%	-4%
CCOc1ccc(C(=O)NCCN2CCCCC2)c(OCC)c1	-13%	-2%	-18%	u	x	-10%	4%	x
O=c1c2sc3ccccc3c2n(Cc2ccccc2F)c(=O)n1Cc1ccccc1	2%[46.1 µM]	x	x	u	-1.6%	x	-28%	13%
CN1CN=C(N[N+](=O)[O-])N(Cc2ccco2)C1	-5%	20%	x	2%	-0.1%	24%	-8%	6%
CCOc1ccc(CC(=O)NCC(=O)NCc2cc(=O)n(C)c(=O)n2C)cc1	u	-6%	17%	u	x	3%	12%	x
O=C(c1ccc2c(c1)N(Cc1cccc(Cl)c1)C(=O)c1ccccc1S2=O)N1CCN(c2cccc(C(F)(F)F)c2)CC1 (stereo not drawn)	-28%[46.1 µM]	x	x	x	-2.6%	x	-15%	25µM*
COC(=O)CSc1nnc(CNS(=O)(=O)c2ccc(Br)cc2)n1C	-4%	5%	-4%	-17%[46.1 µM]	x	0%	16%	x
CCOC(=O)c1cnc(SCCN2CCOCC2)nc1N	-6%	5%	-7%	u	x	1%	25%	x
Cc1ccc(S(=O)(=O)N2CCCCC2)cc1NC(=O)c1ccncc1	13%	x	4%	-4%	x	3%	-19%	x
COc1ccc(CNC(=O)c2ccc(C(C)C)cc2)cc1	u	-5%	-10%	-5%&-5%[46.1 µM]	x	-1%	48%[activator]	x
COc1ccc(NC(=O)CSc2nnc(Cn3cnc4ccccc43)n2C)cc1	3%	5%	-8%	1%	0.9%	-5%	-6%	5%

The closing 7 entries of the part above come first, to join the parts.
SMILES	Lassa entry inh	NS1 inh	RE007 growth inh	MARV entry inh	Cruzain Triton	SARS PLP yeast	StopGo reporter	Cruzain inh noDet
CCOc1ccc(CC(=O)NCC(=O)NCc2cc(=O)n(C)c(=O)n2C)cc1	u	-6%	17%	u	x	3%	12%	x
O=C(c1ccc2c(c1)N(Cc1cccc(Cl)c1)C(=O)c1ccccc1S2=O)N1CCN(c2cccc(C(F)(F)F)c2)CC1 (stereo not drawn)	-28%[46.1 µM]	x	x	x	-2.6%	x	-15%	25µM*
COC(=O)CSc1nnc(CNS(=O)(=O)c2ccc(Br)cc2)n1C	-4%	5%	-4%	-17%[46.1 µM]	x	0%	16%	x
CCOC(=O)c1cnc(SCCN2CCOCC2)nc1N	-6%	5%	-7%	u	x	1%	25%	x
Cc1ccc(S(=O)(=O)N2CCCCC2)cc1NC(=O)c1ccncc1	13%	x	4%	-4%	x	3%	-19%	x
COc1ccc(CNC(=O)c2ccc(C(C)C)cc2)cc1	u	-5%	-10%	-5%&-5%[46.1 µM]	x	-1%	48%[activator]	x
COc1ccc(NC(=O)CSc2nnc(Cn3cnc4ccccc43)n2C)cc1	3%	5%	-8%	1%	0.9%	-5%	-6%	5%
CCOC(=O)C1=C(O)C(=O)N(c2ccc(S(N)(=O)=O)cc2)C1c1ccc(OC)cc1 (stereo not drawn)	-4%	-27%	3%	13%	1.0%	4%	-9%	-1%
CC(C)c1ccc(OCC(=O)N(Cc2ccco2)C2CCS(=O)(=O)C2)cc1 (stereo not drawn)	x	-5%	16%	x	x	2%	0%	x
CN(Cc1ccccc1)C(=O)c1[nH]cnc1C(=O)N[C@@H](Cc1ccccc1)C(=O)OCc1ccccc1	x	4%	4%	x	x	-2%	-15%	x
CC1(C)Cc2c(sc3ncnc(NN)c23)CO1	x	-3%	0%	x	x	-5%	-15%	x
CCc1ccc(CNC(=O)C2CCN(C(=O)c3ccc(-n4c(C)cc5ccccc54)s3)CC2)cc1	u	x	x	x	-0.6%	x	u	-14%
COc1cccc(C2CC(=O)Nc3c2c(=O)n(C)c2nc4ccccc4n32)c1 (stereo not drawn)	12%[46.1 µM]	x	x	4%[46.1 µM]	-4.3%	x	-17%	-5%
COc1cc(C2=NOC(C(=O)NCc3ccccn3)C2)cc(OC)c1OC (stereo not drawn)	1%	2%	-8%	-1%	2.1%	0%	-8%	5%
CSc1ccc(/C=C(\NC(=O)c2ccccc2)C(=O)NCCN2CCOCC2)cc1	u	0%	-8%	2%[46.1 µM]	x	2%	7%	x
CCOc1cc(N2CCOCC2)c(OCC)cc1NC(=O)COC(=O)c1cc2ccccc2cc1O	-6%	12%	x	25%	-1.1%	4%	0%	u
COc1ccccc1N1C(=O)C2C(C(=O)c3ccccc3)=NN(c3ccc(C)cc3)C2C1=O (stereo not drawn)	-8%[46.1 µM]	3%	15%	u	x	0%	-15%	x
NC(=O)c1ccc(NC(=O)Cc2csc(-c3ccccc3)n2)cc1	-2%[46.1 µM]	8%	-2%	1%[46.1 µM]	x	1%	2%	x
Cc1nn(-c2ccccc2)c(N2CCCC2)c1/C=N/NC(=O)c1cc(-c2cccnc2)nc2ccccc12	u	19%	25%	u	-6.8%	-5%	-11%	24%
COc1ccc(CCCC(=O)NCc2ccccc2)cc1C	8.2µM*	-12%	x	-26%	-0.4%	27%	-23%	1%
COC(=O)c1ccc(C(NC(=O)OCc2ccccc2)/C(C)=C/[C@@H](C)C(=O)NCc2ccc(OC)c(OC)c2)cc1 (stereo partly drawn)	u	17%	2%	-51%	-2.7%	-1%	-29%	u
Cc1ccc2cc(CNCCc3ccccc3C)c(=O)[nH]c2c1	4%	4%	-4%	-57%	x	0%	-17%	x
CCc1ccc(-c2cc(C(=O)Nn3cnnc3)c3ccccc3n2)cc1	1.3µM*	-2%	u	1µM*	-3.1%	-17%	11µM*	3%
COc1ccc(-c2cc(C)no2)cc1S(=O)(=O)NCc1cccc(C)c1	u	-16%	12%	u	x	-1%	32%[activator]	x
COc1ccc(N(CC(=O)N2CCc3ccccc32)S(=O)(=O)c2c(C)n[nH]c2C)cc1	4%	u	10%	-9%	3.9%	3%	5%	u
CC1CN=C2C(C(=O)Nc3ccccc3)=C(O)CC(c3ccccc3)N21 (stereo not drawn)	-3%	10%	-9%	u	-6.0%	5%	-22%	9%
Cc1c(Nc2nc(-c3cccc([N+](=O)[O-])c3)cs2)c(=O)n(-c2ccccc2)n1C	-5%[46.1 µM]	-4%	4%	-25%[46.1 µM]	x	0%	-6%	x
Fc1ccccc1C(c1nnnn1Cc1ccc2c(c1)OCO2)N1CCN(Cc2ccco2)CC1 (stereo not drawn)	u	-8%	-12%	u	4.6%	6%	-19%	5%
O=c1cc(-c2ccccc2)c2ccc(O)cc2o1	u	x	17%	10%[46.1 µM]	x	x	2%	x
C=CCn1c(CNC(=O)c2ccccc2F)nnc1SCc1nc2ccccc2c(=O)[nH]1	14%	x	-13%	3%[14.2 µM]	x	-3%	-5%	x
COc1ccc(-c2cc(C)no2)cc1S(=O)(=O)N1CCN(c2ccccn2)CC1	u	-45%	16%	u	x	-4%	u	x
O=C(Nc1ccc2c(c1)CCC2)c1ccccc1F	u	-3%	-23%	-22%	-6.6%	-38%	-27%	-9%
COc1cc(OC)cc(C(=O)N2CCN(C(=O)COc3ccccc3)CC2)c1	-3%[46.1 µM]	x	x	5%[46.1 µM]	-1.3%	x	-10%	7%
Cc1sc2c(c1C)c(=O)n(-c1ccc(Cl)cc1)c(=O)n2Cc1cc(=O)n2ccccc2n1	u	12%	-11%	u	-0.7%&-3.4%	18%	-1%&6%	9%&18%
O=C(c1cnsn1)N1CCC(CO)(Cc2cccc(F)c2)CC1	27%	-5%	3%	u	x	-1%	39%[activator]	x
O=[N+]([O-])c1oc2ccc3ccccc3c2c1CCO	-22%[46.1 µM]	x	u	u	x	x	-11%	x
COc1ccc(OCC(=O)Nc2c(C(=O)N3CCC(N4CCCCC4)CC3)oc3ccccc23)cc1	x	7%	-11%	x	x	1%	-6%	x
COc1cccc2cc(C(=O)C3=C(O)C(=O)N(CCCN(C)C)C3c3ccncc3)oc12 (stereo not drawn)	x	-4%	x	x	6.2%	9%	x	4%
NS(=O)(=O)c1ccc(NC(=S)NC(=O)c2ccc(-c3ccccc3)cc2)cc1	u	u	3%	u	4.0%	-20%	-7%	-11%
COc1cccc(CNCc2ccc(SC)cc2)c1OC	4%	-10%	-8%	u	1.4%	30%	x	3%
COc1ccc(Nc2nc(C)nc3c2oc2ccccc23)cc1	u	-34%	7%	u	x	-3%	0%	x

For convenience, part of the list above.
SMILES	Lassa entry inh	NS1 inh	RE007 growth inh	MARV entry inh	Cruzain Triton	SARS PLP yeast	StopGo reporter	Cruzain inh noDet
O=C(Nc1ccc2c(c1)CCC2)c1ccccc1F	u	-3%	-23%	-22%	-6.6%	-38%	-27%	-9%
COc1cc(OC)cc(C(=O)N2CCN(C(=O)COc3ccccc3)CC2)c1	-3%[46.1 µM]	x	x	5%[46.1 µM]	-1.3%	x	-10%	7%
Cc1sc2c(c1C)c(=O)n(-c1ccc(Cl)cc1)c(=O)n2Cc1cc(=O)n2ccccc2n1	u	12%	-11%	u	-0.7%&-3.4%	18%	-1%&6%	9%&18%
